gsp antag: gsp mutant antagonism | gsp-mutant cells, cAMP HTRF, 30 min; control for the full effect not named in the record | Potency, µM (top dose mostly 76.9 µM), for the others: at the top dose activity change, negative = inhibition, usual class: inhibitors | 340,000 tested, 0.4% active; active = falling curve of any shape with a large fitted effect; inconclusive = falling curve, mostly with a smaller effect; inactive = flat or rising curve; cell line not stated here;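 also: intracellular cAMP measured with PDE inhibitor Ro 20-1724 present during compound exposure; potency is read from the fitted curve at half-maximal effect; % is scaled to controls: 0 for no effect and ±100 for the full control effect; nearly all actives have a fitted effect of over 65% in size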
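Cells in G418 medium, seeded 16-24 h, 37C; buffer exchange to DPBS + 1 mM CaCl2, 0.5 mM MgCl2, 0.05% BSA; cpds in DMSO + […] (300 uM stock), 30 min 37C; HTRF cAMP detection.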
Menin MLL FP FL: displaces fluorescein MLL peptide from human menin | FP activity change, % at 61.4 µM | Fluorescence polarization, fluorescein-MLL peptide displacement from menin | 290,000 tested, under 10 active; inconclusive = falling polarisation curve, or a change in total fluorescence; inactive = total fluorescence flat and polarisation flat or rising; no compound was filed as active; the % refers to the polarisation; negative = inhibition;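 also: % of control where 0% means no effect; inhibitors lower the polarisation; unlabelled MLL peptide was the positive control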
CtBP-E1A inh: inhibitors of CtBP/E1A interaction | AlphaScreen GST-E1A/His-CtBP binding, 1536-well; hits give low values; control for the full effect not named in the record | activity change, % (test concentration not listed) | 340,000 tested, 0.49% active; in the data active means activity change below about -65%; inconclusive means about -30% to -65%; inactive means above about -30%; also: % is scaled to controls: 0 for no effect and ±100 for the full control effect; compound concentration not given in the record
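Protein mix (5X: 125 nM each GST-E1A, His-CtBP) was incubated with pinned compound 2 h at 37 deg C in dark, in 50 mM Tris pH 8.0 buffer with 300 mM NaCl. Glutathione donor and nickel acceptor beads followed; AlphaScreen signal read after 1 h.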
Sfp PPTase inh: inhibitors of Bacillus subtilis Sfp phosphopantetheinyl transferase. Q9F4F7. Biochemical Sfp PPTase activity, qHTS. Potency, µM, for inactives: max response, negative = inhibition, hits mostly inhibitors. 310,000 tested, 3.5% active; active = well fitted inhibition curve with a large enough effect; inconclusive = small, poorly fitted or top-dose-only effect, or another doubt; inactive = no such curve, though single readings can be large or run the other way;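 also: the enzyme is Sfp with the accession as filed and its product quenches rhodamine fluorescence; potency is read from the fitted curve at half-maximal effect; 0% = enzyme reaction without inhibitor and -100% = no enzyme wells; top concentration of the series not given in the record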
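Step 1, compound plus 15 nM Sfp-PPTase, 15 min, room temperature. Step 2, add rhodamine-CoA (5 uM) and BHQ-2-YbbR (12.5 uM). Step 3, read 525/598 nm fluorescence at 0 and 30 min.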
gsp ag: agonists of gsp mutant (McCune-Albright syndrome); gsp mutant cells, cAMP HTRF, 30 min; control for the full effect not named in the record; Potency, µM (titrated, usually from 76.9 µM), without a hit: at the highest dose activation (cAMP increase), usual class: activators; 340,000 tested, 0.13% active; active = well fitted activation curve with a large enough effect; inconclusive = small, poorly fitted or top-dose-only effect, or another doubt; inactive = no such curve, though single readings can be large or run the other way; cell line not stated here;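 also: phosphodiesterase inhibitor Ro 20-1724 added with compounds to block cAMP breakdown; potency is read from the fitted curve at half-maximal effect; nearly all actives have a fitted effect of over 60% in size; about a fifth of the inactives were tested at one dose only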
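Cells in DMEM/10% FBS with G418 were pretreated with compounds in DMSO plus […] (300 uM stock) for 30 min at 37C. cAMP was measured by HTRF (cAMP-d2 plus anti-cAMP antibody-K) after 30 min at room temperature.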
ClpP mod: qHTS Assay for Activators of ClpP | Potency, µM (top dose mostly 57.5 µM), for the others: top-dose activity change, negative = active | ATP-dependent Clp protease proteolytic subunit (Bacillus subtilis (strain 168)), P80244 | 340,000 tested, 1.9% active | purified B. subtilis ClpP, FRET peptide cleavage, 20 min; active = well fitted falling curve with a large enough effect; inconclusive = small, poorly fitted or top-dose-only effect; inactive = no such curve, though single readings can be large or run the other way; also: potency is read from the fitted curve at half-maximal effect; the source files actives as falling curves though it sought activators and does not explain the sign; nearly all actives have a fitted effect of over 65% in size; many hits overshoot -100%
Target sequence (P80244 whole entry, looked up): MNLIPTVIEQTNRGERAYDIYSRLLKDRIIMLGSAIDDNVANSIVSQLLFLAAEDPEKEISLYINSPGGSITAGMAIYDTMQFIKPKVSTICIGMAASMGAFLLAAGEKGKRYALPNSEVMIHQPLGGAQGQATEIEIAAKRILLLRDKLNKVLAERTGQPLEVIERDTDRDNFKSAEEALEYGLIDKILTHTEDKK
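Buffer: 100 mM Tris/HCl pH8, 100 mM KCl, 0.05% low protease BSA, 2.5% glycerol, 0.01% Tween-20. ClpP 10 microg/mL final; 20 min RT; delta FRET normalized to ADEP and DMSO controls.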
TRPV1 PAM: human TRPV1 potentiation | 320,000 tested, 0.02% active | TRPV1-expressing cells, Fluo-8 calcium influx, capsaicin EC20 potentiation; host cell line not named in the record; control for the full effect not named in the record | Q8NER1 | potentiation, % at 8.33 µM; active means potentiation above 80%; inconclusive means 30% to 80%; inactive means below 30%; also: 0% is about no effect
Target sequence (Q8NER1 whole entry, looked up): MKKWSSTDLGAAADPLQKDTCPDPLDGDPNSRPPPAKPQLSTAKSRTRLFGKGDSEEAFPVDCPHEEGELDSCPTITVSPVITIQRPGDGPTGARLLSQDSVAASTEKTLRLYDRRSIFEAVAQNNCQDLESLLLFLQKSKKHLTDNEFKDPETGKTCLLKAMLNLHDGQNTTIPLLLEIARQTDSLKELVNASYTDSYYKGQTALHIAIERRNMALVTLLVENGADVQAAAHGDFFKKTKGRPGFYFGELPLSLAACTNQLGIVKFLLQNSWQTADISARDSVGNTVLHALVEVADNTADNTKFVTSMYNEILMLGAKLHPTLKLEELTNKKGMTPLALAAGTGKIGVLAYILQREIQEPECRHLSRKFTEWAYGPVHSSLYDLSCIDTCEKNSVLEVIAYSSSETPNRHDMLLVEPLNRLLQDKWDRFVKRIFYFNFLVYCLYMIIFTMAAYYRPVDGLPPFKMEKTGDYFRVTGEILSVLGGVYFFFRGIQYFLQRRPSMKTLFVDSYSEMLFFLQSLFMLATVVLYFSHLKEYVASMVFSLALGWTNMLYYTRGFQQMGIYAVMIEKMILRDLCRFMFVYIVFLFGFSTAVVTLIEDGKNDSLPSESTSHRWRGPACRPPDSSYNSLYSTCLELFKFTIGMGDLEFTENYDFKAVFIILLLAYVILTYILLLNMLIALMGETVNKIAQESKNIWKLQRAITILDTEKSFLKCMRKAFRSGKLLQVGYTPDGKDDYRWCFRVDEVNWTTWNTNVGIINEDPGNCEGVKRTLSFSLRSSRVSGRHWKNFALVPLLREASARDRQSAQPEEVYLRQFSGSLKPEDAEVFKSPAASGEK
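Fluo-8 calcium influx in TRPV1-expressing cells, kinetic read (ex 480/em 520 nm). Compound added and read 3 min for agonist activity, followed by capsaicin at EC20 final and 2 min further read for enhancement.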
The depositor's hits bear a star; [ ] = dose if it differs, or a comment.

Cc1cc2cc(CNC(=O)c3ccc(S(=O)(=O)N4CCCCC4)cc3)ccc2[nH]1 was read as gsp antag -5%, Menin MLL FP FL -1.0, CtBP-E1A inh -7, Sfp PPTase inh 4%, gsp ag -8%, ClpP mod -0.8% and TRPV1 PAM 4.
Screening COc1cc(CN(CC2CCCO2)C(=O)c2ccco2)cc(OC)c1OC (stereo not drawn) returned gsp antag 8%, CtBP-E1A inh 0, Sfp PPTase inh 4%, gsp ag 0%, ClpP mod -2.6% and TRPV1 PAM -5.
O=C(COC(=O)Cc1ccc(Cl)cc1)NCc1ccco1 was read as gsp antag 0%, CtBP-E1A inh -3, gsp ag -1% and ClpP mod -2.3%.
Screening O=C(O)C(Cc1ccc(F)cc1)c1ccccc1 (stereo not drawn) returned gsp antag 2%, Menin MLL FP FL 3.1, CtBP-E1A inh 12, Sfp PPTase inh -5%, gsp ag 4%, ClpP mod 1.7% and TRPV1 PAM -20.
`CCN(CC)S(=O)(=O)c1ccc(NN=C2CCN(C)CC2)c([N+](=O)[O-])c1` gave gsp antag -7%, Menin MLL FP FL 0.0, CtBP-E1A inh 0, Sfp PPTase inh 5%, gsp ag 0%[15.4 µM], ClpP mod -2.6% and TRPV1 PAM 1.
`CCOc1ccc(N(Cc2ccc(OC)c(OC)c2)C(=O)c2ccco2)cc1` gave gsp antag -9%, Menin MLL FP FL -3.1, Sfp PPTase inh -9%, gsp ag -49%[inhibitor], ClpP mod 1.6% and TRPV1 PAM 12.
Screening CC1CCN(C(=S)c2ccccc2O)CC1 returned gsp antag 10%, Menin MLL FP FL 1.3, CtBP-E1A inh -1, Sfp PPTase inh 28µM*, gsp ag -14%, ClpP mod 4.3% and TRPV1 PAM 4.
Screening O=C(Nc1nccs1)c1nc[nH]c1C(=O)N1CCc2ccccc2C1 returned gsp antag 6%, CtBP-E1A inh inconclusive, gsp ag 18%, ClpP mod -1.1% and TRPV1 PAM 6.
`Cc1ccc(NS(=O)(=O)c2ccc(C(=O)N3CCCC(C(F)(F)F)C3)cc2)cc1` (stereo not drawn) gave gsp antag 1%, CtBP-E1A inh 3, gsp ag -17%, ClpP mod -2.2% and TRPV1 PAM -8.
For COc1ccc(CCN2C(=O)NC(NC(=O)CC(C)C)(C(F)(F)F)C2=O)cc1OC (stereo not drawn) the results were gsp antag 5%, Menin MLL FP FL 2.2, CtBP-E1A inh 11, Sfp PPTase inh -16%, gsp ag -7%, ClpP mod -0.5% and TRPV1 PAM 13.
`O=[N+]([O-])c1cccc(Cl)c1CSc1ccccn1` gave gsp antag 1%, Menin MLL FP FL -4.1, CtBP-E1A inh 1, Sfp PPTase inh -13%, gsp ag -4% and TRPV1 PAM -1.
Screening COc1ccc(CCNC(=O)C/C(C)=N/NC(=O)c2ccc(N)cc2)cc1OC returned gsp antag -5%[15.4 µM], Menin MLL FP FL 1.8, CtBP-E1A inh -7, Sfp PPTase inh 14%, gsp ag 8%, ClpP mod inconclusive and TRPV1 PAM -1.
`CCOC(=O)C1=C(CSc2nc3c(cc2C#N)CCC3)OC(N)=C(C#N)C1c1ccccc1` (stereo not drawn) gave gsp antag -17%, Menin MLL FP FL inconclusive, CtBP-E1A inh -3, Sfp PPTase inh 20µM*, gsp ag -35%[inhibitor], ClpP mod -2.8% and TRPV1 PAM -2.
Screening CCCNC(=O)C(C)n1c2ccccc2c2nc(=O)cc(C)n21 (stereo not drawn) returned Menin MLL FP FL -1.8, Sfp PPTase inh 11% and TRPV1 PAM -5.
Screening CCn1c(-c2ccc(N)cc2)nc2ccccc21 returned gsp antag -1%, Menin MLL FP FL 0.1, CtBP-E1A inh 5, Sfp PPTase inh 13%, gsp ag inconclusive, ClpP mod 4.7% and TRPV1 PAM 2.
COc1cc2c(cc1OC)C(c1ccc(N(C)C)cc1)NCC2 (stereo not drawn) was read as gsp antag -1%, Menin MLL FP FL -0.5, Sfp PPTase inh -9%, gsp ag -10%, ClpP mod -0.1% and TRPV1 PAM 14.
`CC(C)C(NC(=O)c1ccc(F)cc1)C(=O)N1CCN(c2ccccn2)CC1` (stereo not drawn) gave gsp antag 2%, CtBP-E1A inh -20, gsp ag -24% and ClpP mod 4.0%.
CC(=O)c1ccc(NC(=O)C(=O)c2cn(CC(=O)N3CCCCC3)c3ccccc23)cc1 was read as gsp antag 9%, Menin MLL FP FL 1.6, CtBP-E1A inh -3, Sfp PPTase inh 4%, gsp ag -6%, ClpP mod -3.2% and TRPV1 PAM -6.
`CCOC(=O)C1=C(C)NC(=O)CC1c1cc(OC)c(OC)cc1Br` (stereo not drawn) gave Menin MLL FP FL -0.7, CtBP-E1A inh 15, Sfp PPTase inh 2%, gsp ag 11%[15.4 µM] and TRPV1 PAM -3.
For Cc1ccc(NC(=O)CC(NCCN2CCOCC2)C(=O)O)cc1Cl (stereo not drawn) the results were gsp antag 5%, Menin MLL FP FL 1.2, CtBP-E1A inh -13, Sfp PPTase inh -13%, gsp ag -21%, ClpP mod 0.5% and TRPV1 PAM 20.
For COC(=O)c1cc2ccccc2n1Cc1ccc(Cl)nc1 the results were gsp antag -16%, Menin MLL FP FL 6.1, Sfp PPTase inh 0%, gsp ag -31%[inhibitor], ClpP mod -24% and TRPV1 PAM 18.
Screening O=C(NCCCN1CCOCC1)C(Sc1ccccc1)c1ccccc1 (stereo not drawn) returned gsp antag 0%, Menin MLL FP FL 1.2, CtBP-E1A inh -3, Sfp PPTase inh 4%, gsp ag -33%[inhibitor], ClpP mod -13% and TRPV1 PAM 3.
Screening CCN(CC)CCCNC(=O)C1CCN(C(=O)c2oc3cc4sc(N(C)C)nc4cc3c2C)CC1 returned gsp antag 11%, Menin MLL FP FL 6.3, CtBP-E1A inh -19, Sfp PPTase inh 11%, gsp ag 11%, ClpP mod inconclusive and TRPV1 PAM 5.
CCCn1nc(CC(=O)O)c2ccccc2c1=O was read as gsp antag 4%, Menin MLL FP FL 1.1, CtBP-E1A inh 0, Sfp PPTase inh 18%, gsp ag -21%, ClpP mod -3.6% and TRPV1 PAM 1.
For O=C(NOCc1ccccc1)c1ccc(Cl)cc1Cl the results were gsp antag -8%, CtBP-E1A inh -1, gsp ag -14%, ClpP mod -2.2% and TRPV1 PAM -7.
Screening CCCn1c(=S)[nH]c2ccc(C(F)(F)F)cc21 returned gsp antag -8%, Menin MLL FP FL 0.1, CtBP-E1A inh 5, Sfp PPTase inh inconclusive, gsp ag 11%[15.4 µM] and TRPV1 PAM 9.
Cc1ccc(OCC(=O)NCCCNC(=O)c2ccncc2)cc1C was read as gsp antag 6%, Menin MLL FP FL -3.8, CtBP-E1A inh -1, Sfp PPTase inh 12%, gsp ag -6% and TRPV1 PAM -9.
Screening COc1cccc(NC(=O)CN2C(=O)COc3ccc(Cl)cc32)c1 returned gsp antag -1%, Menin MLL FP FL -1.3, CtBP-E1A inh 1, Sfp PPTase inh 26%, gsp ag inconclusive, ClpP mod 0.6% and TRPV1 PAM 14.
Screening Cc1cc2cc(CCNC(=O)c3cccs3)c(=O)[nH]c2cc1C returned gsp antag -12%, Menin MLL FP FL 0.4, CtBP-E1A inh -1, Sfp PPTase inh -10%, gsp ag -8%, ClpP mod inconclusive and TRPV1 PAM 5.
For Cc1ccc(N2CC(C(=O)Nc3ccc4c(c3)OCCO4)CC2=O)cc1C (stereo not drawn) the results were gsp antag -4%, Menin MLL FP FL 7.3, CtBP-E1A inh 4, Sfp PPTase inh 1%, gsp ag inconclusive and TRPV1 PAM -6.
For CCOc1ccccc1NC(=O)C(Sc1nnc2ccccn12)c1ccccc1 (stereo not drawn) the results were gsp antag -8%, Menin MLL FP FL 5.1, CtBP-E1A inh -10, Sfp PPTase inh 1%, gsp ag 29%, ClpP mod -2.7% and TRPV1 PAM inconclusive.
`Nc1ccc(C(=O)CC(=O)Nc2ccc(Cl)cc2)cc1` gave gsp antag -8%, Menin MLL FP FL 1.8, CtBP-E1A inh 8, Sfp PPTase inh -3%, gsp ag -38%[inhibitor] and TRPV1 PAM -7.
Screening COCCCNC(=S)Nc1cccc(SC)c1 returned gsp antag -1%, Menin MLL FP FL 0.3, CtBP-E1A inh -2, Sfp PPTase inh -7%, gsp ag -2%[15.4 µM] and TRPV1 PAM 5.
Screening O=C(O)/C=C\C(=O)Nc1ccccc1C#Cc1ccc(Br)cc1 returned gsp antag -11%, Menin MLL FP FL 3.1, CtBP-E1A inh 17, Sfp PPTase inh 0%, gsp ag 11%, ClpP mod inconclusive and TRPV1 PAM inconclusive.
Screening CC(=O)c1ccc(N2CCN(C(=S)Nc3cccc(F)c3)CC2)cc1 returned gsp antag -4%, Menin MLL FP FL -0.1, CtBP-E1A inh 1, Sfp PPTase inh -4%, gsp ag 3%, ClpP mod -7.9% and TRPV1 PAM -6.
For Brc1cccc(-c2cnc3n2CCCCC3)c1 the results were gsp antag -4%, Menin MLL FP FL -1.4, CtBP-E1A inh -10, Sfp PPTase inh -17%, gsp ag inconclusive, ClpP mod -3.4% and TRPV1 PAM 20.
Cc1ccc(N2CCN(C(=O)c3cccs3)CC2)cc1C was read as gsp antag 3%, Menin MLL FP FL 7.0, CtBP-E1A inh -21, Sfp PPTase inh 50µM*, gsp ag -12%[15.4 µM], ClpP mod -2.4% and TRPV1 PAM -13.
`Cc1csc(SCC(=O)NCc2ccc3c(c2)OCO3)n1` gave gsp antag 7%, Menin MLL FP FL -0.7, Sfp PPTase inh 6%, gsp ag -13%, ClpP mod 3.1% and TRPV1 PAM 4.
COc1ccc(C2C(C(C)=O)=C(C)Nc3ncnn32)cc1[N+](=O)[O-] (stereo not drawn) was read as gsp antag 7%, Menin MLL FP FL -2.3, CtBP-E1A inh -1, Sfp PPTase inh 0%, gsp ag 30% and TRPV1 PAM 25.
C/C(=N\NC(=O)CCC(=O)Nc1ccc(C)c(C)c1)C1CC1 was read as gsp antag 5%, CtBP-E1A inh 1, Sfp PPTase inh 18%, gsp ag -11%, ClpP mod -2.7% and TRPV1 PAM 20.
COc1ccc(-c2cc(=O)oc3c(C)c(OCC(=O)Nc4cccnc4)ccc23)cc1 was read as gsp antag inconclusive, Menin MLL FP FL 13, CtBP-E1A inh 5, Sfp PPTase inh -1%, gsp ag inconclusive, ClpP mod -1.1% and TRPV1 PAM 15.

Outcome played no part in choosing rows (roughly 5.3% active in at least one column).
